# Compound activity deposited in PubChem BioAssay by ICCB-Longwood Screening Facility, Harvard Medical School.
# Ab BasE inh: BasE siderophore enzyme inhibitors, primary screen, biochemical, Acinetobacter baumannii ATCC 17978, fluorescence polarization; purified BasE, fluorescence polarization binding displacement; inhibition, % (test concentration not listed); 0.1% of 84,000 active; AID 485350, 2010;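 active = both replicates above 25% with normal brightness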;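 also: 0% = negative plate control signal and 100% = positive plate control signal; stock transfer was 100 nL into about 30 µL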
# LANA-nucl inh: inhibitors of KSHV LANA-nucleosome binding, primary screen, biochemical, fluorescence polarization, FITC-LANA1-23, chicken nucleosomes; FITC-LANA1-23 / chicken nucleosome fluorescence polarization; stronger effect = lower value; z-score (test concentration not listed); 0.3% of 51,000 active; AID 720717, 2013;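 active = both repeat wells score below -2 in polarization z-score versus plate sample wells, excluding overly bright wells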;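 also: 100 nL library stock added to about 30 µL; numbers are from one replicate; some results filed as inactive read as strong as hits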
#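 Material: Purified chicken nucleosomes with FITC-labelled LANA N-terminal peptide (1-23) | Reagent: 50 nM FITC-LANA1-23 probe | Medium: TEN-BT buffer, pH 7.5 | Times: 10–45 min incubation at room temperature | Detection: Fluorescence polarization | Replication: Duplicates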
# Active calls of the source: *; x = not tested or not shown; & = joins results of further samples. These rows are one share of the data; count on the stated rates, not on these rows.
SMILES,Ab BasE inh,LANA-nucl inh
CN1C(=O)CSc2ccc(NC(=O)N3CCN(c4ccccn4)CC3)cc21,1.3,0.24
CCn1c(C(=O)NCCC2=CCCCC2)cc2oc3ccccc3c21,0.7,0.58
CCOC(=O)c1ccc(N/N=C2/C(=O)C3(C)CCC2C3(C)C)cc1 (configuration not stated),0.6,0.73
O=C(NS(=O)(=O)c1ccc(Br)cc1)c1ccccc1,-0.1,x
COC(=O)CCC(=O)Nc1cccc2ccccc12,-1.4,0.54
CN(C)c1ccc(CN(C)C2CCCCC2)cc1,-1.7,0.062
NS(=O)(=O)c1ccc(CCNC(=O)NC2CC(=O)N(c3ccccc3)C2)cc1 (configuration not stated),1.5,-1.4
COc1cccc2cc(C(=O)N3CCCCC3)c(=O)oc12,0.2,-0.91
COc1ccccc1NC(=O)c1cccc(Cl)c1,1.3,-0.54
CN(C)/C=C/S(=O)(=O)c1ccc(Cl)cc1,x,-0.39
O=C(Cn1[nH]c(=O)c2ccccc2c1=O)OCN1C(=O)c2ccccc2C1=O,-0.4,x
CCOC(=O)C1=C(C)N=C2SCCC(=O)N2C1/C=C/c1ccccc1 (configuration not stated),1.6,0.56
COc1ccccc1CC(=O)Nc1ccc(-c2nc3ccccc3[nH]2)cc1,2.9,x
CN(CC(=O)O)C(=O)Nc1ccc(Cl)cc1Cl,2.1,0.13
Fc1cccc(CN2CCN(C(=S)NCc3ccco3)CC2)c1,0.8,0.43
CNC(=O)c1ccc(CN2CCc3ccccc3C2)cc1,0.1,0.36
Cc1ccc(C(C(=O)NC2CC2)N(C(=O)Cn2nnc(-c3cccs3)n2)c2cnc3ccccc3c2)o1 (configuration not stated),1.3,0.39
CCc1ccc(-c2cc(O)cc3sc(=O)oc23)cc1,0.9,x
CCn1c(=O)c(=O)[nH]c2cc(C(=O)Nc3nc4c(s3)CCCC4)ccc21,-3.2,x
O=C(OCC(=O)N1CCNC1=O)C1=COCCO1,2.1,x
O=C1CS/C(=N/S(=O)(=O)c2ccccc2)N1C1CCCCC1,-2.5,-0.12
O=C(CCc1nc2ccccc2s1)NCc1cccs1,-0.4,x
O=C(CNCCN1CCOCC1)Nc1ccc2c(c1)OCCO2,-0.5,x
CC(N=C1NS(=O)(=O)c2ccccc21)C(=O)OCc1ccccc1F (configuration not stated),0.1,x
C=CCSc1nnc(NC(=O)CSc2nc(C)cc(=O)[nH]2)s1,1.7,-0.84
# The list continues.
SMILES,Ab BasE inh,LANA-nucl inh
COc1ccc(-c2noc(N3CCC(C(=O)NCCCN4CCCCC4)CC3)n2)cc1,-6.3,0.032
COc1ccc(C(C(O)C(=O)c2c[nH]c3ccccc23)N2CCN(c3ccccc3)CC2)cc1 (configuration not stated),1.0,x
CC1CCC(C(C)C)C(OC(=O)Cn2nnc(-c3ccccc3)n2)C1 (configuration not stated),-0.5,x
O=C(NCCCO)NC1CCCCC1,3.7,-0.51
COC(=O)c1sc(Sc2cccs2)c2c1CC(C)(C)CC2=O,0.4,-0.066
CCc1ccc(S(=O)(=O)NCC(O)COc2ccc(OC)cc2)cc1 (configuration not stated),-1.1,x
Cc1cc(-c2ccc(C)c(S(=O)(=O)NCCN3CCN(c4cc(Cl)ccc4C)CC3)c2)on1,0.6,x
O=c1ccc(C(F)(F)F)cn1CN1CCN(S(=O)(=O)c2ccc3c(c2)CCCC3)CC1,-1.1,x
NC(=O)C1CCN(CC(O)CSc2ccc(F)cc2)CC1 (configuration not stated),0.1,x
CCN(CC)C1=CC(=O)OC12CCCCC2,0.8,0.1
O=C(Nc1nccs1)c1ccc(S(=O)(=O)N2CCCc3ccccc32)cc1,1.3,x
CN1Cc2c(N)cccc2C(c2ccccc2)C1 (configuration not stated),-1.7&-0.1,0.087&-1&0.32
CC(=O)NCc1ccc(-c2csc(NC(=O)c3cnn(-c4ccccc4)n3)n2)cc1,-0.6,x
COC(=O)CC1C(=O)NCCN1C(=O)CSc1nc2ccccc2s1 (configuration not stated),2.0,x
CSc1ccc(C(=O)NC(=O)NCc2cccc(Cl)c2)s1,2.8,x
COc1cc(OC)cc(C(=O)Nc2cc(NC(=O)c3ccco3)ccc2OC)c1,-0.7,-0.67
Cc1nc2c(c(C)nn2-c2ccccc2)c(C)c1CCC(=O)N1CCCC1,1.0,-0.28
CSc1ncc(C(=O)N2CCN(c3ncccn3)CC2)n1-c1ccccc1,1.6,x
Cc1c(C(=O)O)sc2ncn(Cc3ccccc3F)c(=O)c12,1.8,x
N#Cc1ccc(C(=O)OCC(=O)Nc2ccc(N3CCCCC3)cc2)cc1,-0.6,x
CCOC(=O)c1c(CS(=O)(=O)c2cccc(C(F)(F)F)c2)oc2c(F)c(F)c(F)c(F)c12,0.3,-0.72
C=CCn1c(SCc2nc3ccccc3c(=O)[nH]2)nnc1-c1cccc(OC)c1,-3.8,-1
COC(=O)c1ccc(CSc2nnc(-c3ccc(OC)cc3)o2)cc1,1.3,-1.1
CCC(=O)Nc1ccc(-c2nc3c(C)cccc3c(=O)o2)cc1,-0.9,0.82
CC(Oc1cccc2c1OC(C)(C)C2)C(=O)N1CCc2ccccc21 (configuration not stated),0.1,x
# The listing continues:
SMILES,Ab BasE inh,LANA-nucl inh
CCN1C(=O)C2CSCN2C1=O (configuration not stated),2.0,x
CCN1C(=O)C(O)(CC(=O)C(C)(C)C)c2cc(Br)ccc21 (configuration not stated),-3.3,1.9
Clc1ccc(CCNc2ncnc3[nH]ncc23)cc1,2.2,x
CCCc1cc(=O)[nH]c(SCC(=O)c2cc(C)n(-c3ccc4c(c3)OCO4)c2C)n1,1.8,x
NC(=O)Cn1c(CSc2nnnn2C2CCCC2)nc2ccccc2c1=O,-7.8,x
CCN(CC)S(=O)(=O)c1ccc(N2CCN(c3ccc(C(F)(F)F)cn3)CC2)nc1,4.3,x
CC(=O)Nc1cccc(C(=O)N(C)CCOc2ccccc2)c1,0.8,x
CCOc1ccc(C(=O)OCC(=O)Nc2ccc(S(N)(=O)=O)cc2)cc1,1.4,x
C=CCN(CC=C)Cn1c(=S)oc2ccc(S(=O)(=O)Nc3ccc(OC)cc3)cc21,0.7,x
CC(=O)NC1C(OCc2ccccc2)OC(CO)C(O)C1OC(C)=O (configuration not stated),1.6,0.78
Cc1ccc(CNC2=NCCC2)n1C,0.0,x
CCN1CCN(C(=O)C(C)Nc2cc(Cl)c(OC)cc2OC)CC1 (configuration not stated),0.3,x
CC(C)Nc1c(-c2ccccc2)nc2ccccn12,-1.1,-0.78
CCOC(=O)c1cc(-c2ccc(S(=O)(=O)N3CCCc4ccccc43)s2)on1,-6.8,1.5
O=C(CCCc1ccccc1)Nc1nnc(C(F)(F)F)s1,-1.9,0.72
CC(C)Sc1n[nH]c(=O)n1-c1ccc2c(c1)OCCO2,x,-0.73
O=S(=O)(NCCN1CCCC1)c1ccc(C(F)(F)F)cc1,x,-0.85
CC1CCC(NC(=O)CN2CCC(n3nnc4ccccc43)CC2)CC1 (configuration not stated),-0.5,-0.53
COc1ccc(CN2C(=O)CCC2(C)C(=O)NCCC(C)C)cc1 (configuration not stated),-2.0,0.78
O=C(/C=C/c1ccccc1)OCc1cnc(Cl)s1,x,-0.51
COc1ccccc1CNC(=O)c1cn(C)c(=O)c2cc(OC)c(OC)cc12,1.9,-0.41
CN1CCN(C(=O)/C(C#N)=c2\s/c(=C\c3ccc4c(c3)OCO4)c(=O)n2Cc2ccco2)CC1,0.5,x
O=C(O)c1cccc(NC(=O)C2CCCCC2C(=O)O)c1 (configuration not stated),1.9,x
CC(=O)Nc1ccc(N=NN2CCCCC2)cc1,0.4,-0.63
O=C(CN1CCC(n2nnc3cc(C(F)(F)F)ccc32)CC1)Nc1ccc(N2CCCC2)cc1,-0.1,0.094
# The results go on.
SMILES,Ab BasE inh,LANA-nucl inh
COc1cc(CN2CCN(C(=O)c3ccccc3F)CC2)cc(OC)c1OC,-1.2,-0.34
N/C(Cn1ccc(C(F)(F)F)n1)=N\OC(=O)Nc1ccc(Cl)cc1,4.0,-0.1
CN(C(=O)COC(=O)c1cc(=O)[nH]c2ccccc12)c1c(N)n(Cc2ccccc2)c(=O)[nH]c1=O,0.7,x
CCC1=C/C(=C\c2ccc3c(c2)OCO3)C(=O)S1,1.5,x
Nn1c(Cc2ccccc2F)nnc1SCC(=O)NCC(F)(F)F,1.0,x
Cc1ccc(N(CCCCN2C(=O)c3ccccc3C2=O)C(=O)c2cccc(Cl)c2)cc1,1.7,x
N#Cc1cnn2c(-c3ccc(Oc4ccccc4)cc3)ccnc12,x,0.58
O=C(c1ccc(S(=O)(=O)N2CCCCC2)cc1)N(c1ccccc1)C1C=CS(=O)(=O)C1 (configuration not stated),-0.8,-0.051
COc1ccc(N2CCN(CCCNC(=O)C3CCN(S(=O)(=O)c4ccc(Br)s4)CC3)CC2)cc1,-4.1,1.1
COc1cc(C(=O)OCCCN2CCOCC2)ccc1O,0.9,-0.14
CN1CCSc2ccc(C(=O)N3CCCCCC3)cc21,-2.8,-0.12
COc1ccc(-n2cnnc2SCc2c(C#N)oc3ccc(Br)cc23)cc1,0.0,x
O=C(CSc1nnc(-c2cccs2)n1-c1ccccc1)NCCC1=CCCCC1,1.9,x
O=C(CCC(=O)n1ncc2ccc(Cl)cc21)N1CCN(c2ccccc2)CC1,1.1,0.36
O=C(NC1CCCCCC1)C(F)(F)F,2.4,-0.47
CCC(C)NC(=O)c1cn(C)c(=O)c2cc(OC)c(OC)cc12 (configuration not stated),-0.2,-0.16
Cc1nc2ccccc2c2oc(C(=O)NCCCN3CCCC3=O)cc12,-0.6,-0.29
CN1C/C(=C\c2ccc(N(C)C)cc2)C(=O)/C(=C/c2ccc(N(C)C)cc2)C1,15,0.5
O=c1[nH][nH]c(=O)c2c(N=Cc3c[nH]c4ccccc34)cccc12,6.2,0.84
O=C(CN1CCc2ccccc21)N1CCc2ccccc21,x,0.38
CCCNC(=O)CSc1nnc(SCC(=O)NCCCn2nc(C)cc2C)s1,-1.0,x
CC(C)(C)c1cc2nc(C(F)(F)F)cc(N3CCN(C(=O)Nc4ccccc4)CC3)n2n1,0.5,-0.45
O=S(=O)(NC1CC2CCC1C2)c1ccc2c(c1)OCCO2 (configuration not stated),-0.4,-0.59
CCOC(=O)c1cnc2c(C)cc(C)cc2c1Nc1ccc2c(c1)OCCO2,-0.1,x
Cc1cc(C)n(CCCNC(=O)c2ccc3ccccc3c2)n1,-0.7,x
# (further entries)
SMILES,Ab BasE inh,LANA-nucl inh
O=C(NCCC1CCCCN1S(=O)(=O)c1ccccc1)Nc1ccccc1 (configuration not stated),1.0,-1.2
COc1cc(/C=C/C(=O)C2CC2)cc(OC)c1OC,-2.1,0.042
O=C1CN(c2ccccc2)C(=O)C1C(=O)NCc1ccccc1 (configuration not stated),-0.3,2.3
CC(C)(C)Nc1n[nH]c(=S)s1,2.4,x
CC(c1ccccc1)N1CCC(=O)C2=C1CCCC2 (configuration not stated),1.0,0.001
CCCCN(C)C(=O)CN1C(=O)CCSc2ccccc21,-0.9,0.73
CCc1cc(CN2CCOCC2)c(NC(=O)c2ccccc2)s1,-1.8,x
CC(C)NC(=O)CSc1nc2ccccc2c(=O)n1-c1ccccc1,3.8,-0.6
CCN(CC)CCCOc1ccc(C)cc1C,-4.3,0.27
O=C(NCc1ccco1)c1cc2c(Cl)nc3ccccc3c2s1,1.8,0.81
Nc1nc(Nc2ccc(Cl)c(Cl)c2)nc(-c2cc3ccccc3o2)n1,-0.7,-0.22
CCSc1nccc(-c2ccc3c(c2)CCC(C)(C)O3)n1,-0.4,x
Cc1ccc(-c2cnc(-c3ccc(Br)cc3)o2)cc1,2.2,x
CN(C(=O)Cn1c(=O)oc2ccccc21)C1CCCCC1,-0.1,-0.23
CC[C@H](CC[C@@H](C)[C@H]1CC[C@H]2[C@@H]3CC=C4C[C@@H](O)CC[C@]4(C)[C@H]3CC[C@]12C)C(C)C,-0.3,0.54
COc1cc(CO)ccc1OCC(=O)NC1CCCCC1,1.8,-1
CCc1c(C)[nH][n+]2cnn(Cc3ccc(Cl)cc3)c2c1=O,0.1,-1.3
Nc1cccc(C(=O)NC23CC4CC(CC(C4)C2)C3)c1,-0.5,0.77
CCCN1C2CCCC1CC(NC(=O)NC1CCCCC1)C2 (configuration not stated),1.2,-0.7
O=C(CCc1ccccc1)Oc1ccc(F)cc1,-0.3,-1.3
